Bioassay records deposited in PubChem BioAssay by National Center for Advancing Translational Sciences (NCATS).
TRPML1 blocker – qHTS for Inhibitors of the Human Mucolipin Transient Receptor Potential 1 (TRPML1); Mucolipin-1 (Homo sapiens), Q9GZU1; TRPML1-inducible cells, Ca2+ dye fluorescence, FDSS; stronger effect = lower value; inhibition of EC80 agonist-evoked calcium signal; activity change, negative = inhibition, % (test concentration not listed); actives 0.02% (n = 390,000); in the data active means activity change below about -50%; inconclusive means about -30% to -50%; inactive means above about -30%;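 note: stimulus is agonist 54-4 at its EC80 concentration; % is set by controls: 0 for no effect and ±100 for the full control effect; compound concentration not given in the record; the text of the record puts the active cut at -80%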
Target sequence (Q9GZU1 whole entry, looked up): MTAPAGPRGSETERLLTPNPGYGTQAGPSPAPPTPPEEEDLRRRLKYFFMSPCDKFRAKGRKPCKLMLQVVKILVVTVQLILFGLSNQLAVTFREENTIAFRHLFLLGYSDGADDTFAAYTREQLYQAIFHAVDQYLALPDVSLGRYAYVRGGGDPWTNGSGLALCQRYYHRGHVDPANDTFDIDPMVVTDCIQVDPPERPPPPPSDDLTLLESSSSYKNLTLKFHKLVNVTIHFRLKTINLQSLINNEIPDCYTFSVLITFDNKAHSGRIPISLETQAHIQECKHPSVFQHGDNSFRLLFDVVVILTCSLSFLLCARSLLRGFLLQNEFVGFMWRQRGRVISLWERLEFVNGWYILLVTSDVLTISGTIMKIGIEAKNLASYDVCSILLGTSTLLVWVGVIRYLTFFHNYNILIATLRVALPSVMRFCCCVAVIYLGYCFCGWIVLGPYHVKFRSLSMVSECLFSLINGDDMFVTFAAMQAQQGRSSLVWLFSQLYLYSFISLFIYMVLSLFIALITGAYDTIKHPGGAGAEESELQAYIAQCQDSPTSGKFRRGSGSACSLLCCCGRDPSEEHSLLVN
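Calcium fluorescence in TRPML1-DL cells induced overnight with Tet: a 110 s read after compound pin addition, then a 110 s antagonist read after challenge with 54-4 at 4 uM final (EC80).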
Sfp PPTase inh – qHTS Assay for Inhibitors of Bacillus subtilis Sfp phosphopantetheinyl transferase (PPTase). 4'-phosphopantetheinyl transferase ffp (Bacillus subtilis), Q9F4F7. Biochemical Sfp PPTase activity, qHTS. Potency, µM, for the others: max response, negative = inhibition, most hits filed as inhibitors. actives 3.5% (n = 310,000). AID 1490, 2009; active = well fitted inhibition curve with a large enough effect; inconclusive = small, poorly fitted or top-dose-only effect, or another doubt; inactive = no such curve, though single readings can be large or run the other way;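 note: the enzyme is Sfp with the accession as filed and its product quenches rhodamine fluorescence; potency is the fitted concentration of half-maximal effect; 0% = enzyme reaction without inhibitor and -100% = no enzyme wells; top concentration of the series not given in the record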
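Step 1, compound plus 15 nM Sfp-PPTase, 15 min, room temperature. Step 2, add rhodamine-CoA (5 uM) and BHQ-2-YbbR (12.5 uM). Step 3, read 525/598 nm fluorescence at 0 and 30 min.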
PINK1 modulator – A Quantitative High throughput Screen to Identify Chemical Modulators of PINK1 Expression | actives 0.2% (n = 410,000) | Potency, µM (titrated, usually from 76.6 µM), without a hit: top-dose activation (PINK1 increase), usual class: activators | AID 624263, 2012 | PINK1 immunofluorescence, high-content cytometry, 24 h; active = well fitted activation curve with a large enough effect; inconclusive = small, poorly fitted or top-dose-only effect; inactive = flat fitted curve, though single readings scatter; cell line not stated here;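 note: potency is the fitted concentration of half-maximal effect; % of control where 0% means no effect; nearly all actives have a fitted effect of over 65% in size; a mitochondrial uncoupler was the plate control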
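Measures PINK1 amount and localization on or inside mitochondria by immunofluorescence. Stable cells get compounds at 5 concentrations for 24 hours before fixation and staining; CCCP controls included.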
TRPV1 potentiator – HTS Assay for Compounds that Act as Potentiators of the Vanilloid Receptor 1. Transient receptor potential cation channel subfamily V member 1 (Homo sapiens), Q8NER1. TRPV1-expressing cells, Fluo-8 calcium influx, capsaicin EC20 potentiation; host cell line not named in the record; control for the full effect not named in the record. potentiation, % at 8.33 µM. actives 0.02% (n = 320,000). AID 540277, 2011; active means potentiation above 80%; inconclusive means 30% to 80%; inactive means below 30%; note: 0% is about no effect
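Cells expressing TRPV1 were dye-loaded with Fluo-8 and read kinetically: 10 s baseline, 3 min after compound (agonist portion), then 2 min after EC20 capsaicin (allosteric enhancer portion). Calcium-bound dye fluorescence at 480/520 nm.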
Menin-MLL FL inh – qHTS Assay for Inhibitors Targeting the Menin-MLL Interaction in MLL Related Leukemias: Competition With Fluorescein Labeled MLL-derived Peptide | Fluorescence polarization, fluorescein-MLL peptide displacement from menin | 290,000 tested, under 10 active | FP activity change, % at 61.4 µM; inconclusive = falling polarisation curve, or a change in total fluorescence; inactive = total fluorescence flat and polarisation flat or rising; no compound was filed as active; the % refers to the polarisation; negative = inhibition;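 note: % of control where 0% means no effect; inhibitors lower the polarisation; unlabelled MLL peptide was the positive control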
ClpP mod – qHTS Assay for Activators of ClpP | ATP-dependent Clp protease proteolytic subunit (Bacillus subtilis (strain 168)), P80244 | purified B. subtilis ClpP, FRET peptide cleavage, 20 min | Potency, µM (top dose mostly 57.5 µM), for inactives: top-dose activity change, negative = active | actives 1.9% (n = 340,000); active = well fitted falling curve with a large enough effect; inconclusive = small, poorly fitted or top-dose-only effect; inactive = no such curve, though single readings can be large or run the other way; note: potency is the fitted concentration of half-maximal effect; the source files actives as falling curves though it sought activators and does not explain the sign; nearly all actives have a fitted effect of over 65% in size; many hits overshoot -100%
Target sequence (P80244 whole entry, looked up): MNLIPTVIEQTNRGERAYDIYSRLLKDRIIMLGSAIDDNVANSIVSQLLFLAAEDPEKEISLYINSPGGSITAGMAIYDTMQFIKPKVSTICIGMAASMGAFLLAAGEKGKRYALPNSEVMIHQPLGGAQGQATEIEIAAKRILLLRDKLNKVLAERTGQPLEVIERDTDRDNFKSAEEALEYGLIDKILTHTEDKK
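ClpP 10 microg/mL final, pH 8 Tris/KCl buffer with BSA, glycerol, Tween-20; compound pinned in; FRET-FV substrate; RT 20 min; Ex320/Em430; ΔFRET vs ADEP 5.8 microM, DMSO, no enzyme.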
TRPML1 agonist – qHTS for Agonists of the Human Mucolipin Transient Receptor Potential 1 (TRPML1). Mucolipin-1 (Homo sapiens), Q9GZU1. TRPML1-expressing cells, Ca2+ dye fluorescence, FDSS; host cell line not named in the record; reference of the full effect not given here. actives 0.12% (n = 410,000). activation, % (concentration not given with the values); in the data active = activation above about 50%; inconclusive = about 30% to 50%; inactive = below about 30%; note: 0% is about no effect; the text of the record puts the active cut at 80%
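TRPML1-DL cells, Tet-induced overnight (~16 h, 37 degrees C), loaded 45-90 min at room temperature with Ca8 no-wash calcium dye plus quencher. FDSS fluorescence: 10 s baseline, compound pin-transfer, 110 s agonist read, then EC80 54-4 (4uM final) and 110 s antagonist read.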
* hit, by the source's call; ? = inconclusive; / = no result given; [ ] = remark or other dose.

item	Molecule	TRPML1 blocker	Sfp PPTase inh	PINK1 modulator	TRPV1 potentiator	Menin-MLL FL inh	ClpP mod	TRPML1 agonist
1	COc1cc2c(cc1NC(=O)C(F)(F)F)-c1ccc(NC(=O)C(F)(F)F)cc1C2	-11	/	3.0%	/	/	2.4%	-0.6
2	COc1ccc(CN2C(=O)c3cccnc3C2=O)cc1S(=O)(=O)NCc1ccccc1	-23	23%	5.4%	-4	-0.8	-1.9%	-0.4
3	CC1CCc2c(sc(NC(=O)c3cccn3C)c2C(N)=O)C1 (centres undefined)	-7	/	1.9%	/	/	/	-0.7
4	CCOC(=O)/C(C#N)=C/c1ccc(OC(=O)c2ccco2)c(OCC)c1	16	-1%	2.3%	-9	21	-2.1%	0.6
5	CCCC[n+]1ccn(-c2nc3ccccc3nc2[N-]S(=O)(=O)c2ccc(C)cc2)c1	-3	8%	-5.1%[38.3 µM]	?	-1.1	?	-0.1
6	CCOc1ccc(NC(=O)Cn2cc(S(=O)(=O)c3ccc(C)cc3)c(=O)c3cc(F)ccc32)cc1	8	/	6.6%	/	/	-20%	0.6
7	COc1cc(C2CC(=O)Nc3c2c(C)nn3-c2nc(C)cc(C)n2)cc(OC)c1O (centres undefined)	-11	/	-0.4%	/	/	-1.6%	-0.5
8	COc1ccc(CNC(=O)COC(=O)c2c(NC(C)=O)sc(C)c2C)cc1OC	12	/	3.4%	/	/	-11%	-0.4
9	C=CCN1C(c2ccccc2)=CS/C1=C(\C#N)c1nnc2n1CCCCC2	23	63µM*	0.9%[38.3 µM]	10	1.2	-1.4%	0.4
10	Cc1ccc(NC(=O)CSc2ccc(-c3ccccn3)nn2)cc1	-4	-4%	0.2%	?	1.7	/	2.3

Looked up by structure from the list above, two records:
item	Molecule	TRPML1 blocker	Sfp PPTase inh	PINK1 modulator	TRPV1 potentiator	Menin-MLL FL inh	ClpP mod	TRPML1 agonist
1	COc1cc2c(cc1NC(=O)C(F)(F)F)-c1ccc(NC(=O)C(F)(F)F)cc1C2	-11	/	3.0%	/	/	2.4%	-0.6
7	COc1cc(C2CC(=O)Nc3c2c(C)nn3-c2nc(C)cc(C)n2)cc(OC)c1O (centres undefined)	-11	/	-0.4%	/	/	-1.6%	-0.5

The main list resumes, repeating the three entries before the break.
item	Molecule	TRPML1 blocker	Sfp PPTase inh	PINK1 modulator	TRPV1 potentiator	Menin-MLL FL inh	ClpP mod	TRPML1 agonist
8	COc1ccc(CNC(=O)COC(=O)c2c(NC(C)=O)sc(C)c2C)cc1OC	12	/	3.4%	/	/	-11%	-0.4
9	C=CCN1C(c2ccccc2)=CS/C1=C(\C#N)c1nnc2n1CCCCC2	23	63µM*	0.9%[38.3 µM]	10	1.2	-1.4%	0.4
10	Cc1ccc(NC(=O)CSc2ccc(-c3ccccn3)nn2)cc1	-4	-4%	0.2%	?	1.7	/	2.3
11	CC(=O)Nc1ccc(-n2c(C)nc(=O)c(-c3ccccc3)c2C)cc1	10	3%	-1.9%	-5	4.7	0.0%	-0.7
12	Cc1ccc(CNS(=O)(=O)c2ccc(C(F)(F)F)cc2)n1C	-2	14%	3.4%	1	2.8	-1.1%	1.1
13	CC(=O)c1cc(C(=O)Nc2cccc(C)c2)c2ccccn12	-13	/	1.4%	/	/	-11%	-0.6
14	COc1ccc(CCNC(=O)C2CC(=O)N(C3CCCC3)C2)cc1OC (centres undefined)	3	7%	/	-3	0.7	0.2%	-0.3
15	CCCc1nc2ccccc2n1C(=S)SC	-14	-16%	2.1%	-14	-3.1	/	2.1
16	COc1cc(CN2CCNC(=O)C2CC(=O)NCCCN2CCOCC2)cc(OC)c1 (centres undefined)	1	12%	-0.5%	-7	/	/	-0.6
17	Cc1nn(C(=O)c2ccccc2)c(C)c1S(=O)(=O)N1CCCCCC1	57	/	-0.2%	/	/	-2.6%	0.6
18	CCN(CC)C(=O)Cn1cc(C(=O)C(=O)N(CC)C2CCCCC2)c2ccccc21	8	-2%	0.2%	6	/	-0.1%	-0.1
19	COc1ccccc1CN1CCCC2(CCN(C(=O)c3cccc(F)c3)CC2)C1	/	7%	-0.5%	/	-5.2	/	/
20	Cc1ncc(C[n+]2csc(CCOC(=O)CC3C4CC5CC(C4)CC3C5)c2C)c(N)n1 (centres undefined)	-2	4%	-1.4%	-12	3.0	3.2%	1.6
21	Cc1cccc(OCCc2c(C)[nH]c(=S)[nH]c2=O)c1	4	-2%	1.1%	5	5.0	/	-1.2
22	Cc1ccc(OCC(=O)N2CCN(C(=O)Cc3ccccc3)CC2)cc1	-9	19%	0.4%	-15	-1.9	-0.3%	1.2
23	COc1ccc(-c2cc(C(=O)NCc3ccco3)c3ccccc3n2)cc1	/	?	2.9%	1	7.0	3.7%	/
24	Cc1ccc2c(c1)N(CC(=O)Nc1ncccc1C)C(=O)C(C(C)C)O2 (centres undefined)	-14	1%	-1.0%	0	-4.8	-1.5%	0.6
25	COc1cc(NC(=O)COC(=O)c2ccccc2F)cc(OC)c1	5	10%	-1.8%	-10	2.8	-17%	-0.8
26	CCN(CC)CCN(C(=O)c1ccc(C(C)=O)cc1)c1nc2ccc(Cl)cc2s1	16	-11%	0.5%	?	-1.7	-1.1%	-0.8
27	CC1CCN(S(=O)(=O)c2ccc(S(=O)(=O)NCc3cccnc3)cc2)CC1	-7	23%	1.0%	5	-1.4	/	-0.5
28	COc1cc(OC)c(OC)cc1/C=C/c1nc2cc3ccccc3cc2c(=O)n1-c1ccc(F)c(Cl)c1	8	/	0.0%	/	/	-1.4%	1.6
29	CC(=O)Nc1ccc(NC(=O)C(C)OC(=O)C2CCCC2)cc1 (centres undefined)	-19	/	1.0%	0	/	?	0.8
30	Cc1ccc(/C=C2\SC(=S)N(CCC(=O)NNC(=O)c3ccc(O)cc3)C2=O)cc1	-2	-13%	0.5%	17	17	-0.6%	0.1
31	Cn1c(=O)c(-c2ccc(F)cc2)nc2cncnc21	/	20%	-1.1%	/	1.7	/	/
32	Cc1ccc(C)c(N2CCN(C(=O)c3ccc4c(Cl)c5c(nc4c3)CCCC5)CC2)c1	4	/	2.3%	/	/	0.1%	0.5
33	O=C(CN1C(=O)/C(=C\c2ccc(F)cc2)Oc2ccccc21)NCc1ccco1	13	8%	8.7%	-5	0.4	?	-0.8
34	Cc1cc(C)nc(SC2CC(=O)N(c3ccc(Br)cc3)C2=O)n1 (centres undefined)	16	-6%	1.1%	-3	4.7	/	0.7
35	CN(CC(=O)Nc1sc2c(c1C#N)CCCCC2)Cc1nc2ccccc2c(=O)[nH]1	8	11%	4.1%	3	0.0	-1.0%	1.1
36	Cc1ccccc1-n1c(SCC(=O)c2c(N)n(C)c(=O)n(C)c2=O)nc2sc3c(c2c1=O)CCCC3	0	-1%	-2.1%	4	3.6	-4.7%	0.0
37	CCN(CC(=O)Nc1cccc(OC)c1)C(=O)c1ccncc1	-9	16%	2.0%	-6	-0.8	/	-0.3
38	Cc1cccc(C2c3[nH]c4ccccc4c3CCN2Cc2ccc(C)s2)n1 (centres undefined)	1	8%	-3.3%	8	-3.1	/	1.2
39	Cc1ccc(SCC(=O)Nc2ccccc2C(=O)O)cc1	30	0%	0.8%	11	2.8	-3.8%	1.4
40	Cc1sc2ncnc(SCC(=O)N3CCCC(C(F)(F)F)C3)c2c1C (centres undefined)	-2	5%	2.0%	0	?	0.5%	-0.7
41	CC(=O)N1N=C(C)CC1c1ccc(O)cc1 (centres undefined)	4	18%	2.6%	0	-0.5	-0.8%	-0.2
42	O=C(CCn1c(=O)sc2ccccc21)NCc1ccc2c(c1)OCO2	39	-10%	-1.4%[38.3 µM]	-4	9.4	0.0%	0.8
43	CCOC(=O)c1oc2ccc(Br)cc2c1NC(=O)CN1CCN(C)CC1	7	-25%	2.5%	-16	-2.2	-2.4%	-0.8
44	COc1cc(/C=N/NC(N)=O)cc(Br)c1OCc1ccccc1C	8	-7%	0.4%	9	4.9	-0.3%	0.0
45	COCCNC(=O)C1(C)CCCN(C(=O)c2cc(F)ccc2C)C1 (centres undefined)	/	/	-0.6%	/	/	-1.1%	-0.3
46	Cc1ccc(C2(C)NC(=O)N(Cc3c(C)noc3C)C2=O)cc1 (centres undefined)	41	8%	1.1%	7	4.3	-1.4%	-0.7
47	O=C1N=C(N2CCOCC2)SC1=C1CCCCC1	-6	-2%	-3.6%	13	4.2	0.5%	-1.0
48	COc1ccc2oc(-c3ccccc3)c(C(=O)O)c2c1	8	17%	-0.9%	-4	-2.6	4.2%	-0.1
49	CN1CCN(Cc2cn(C)nc2-c2ccccc2F)CC1c1ccccc1 (centres undefined)	-17	18%	2.2%	-3	1.5	1.1%	0.9
50	CCOc1ccccc1C(=O)Nc1ccccc1-c1ccccc1	-3	6%	8.4%	-4	-1.4	4.3%	1.1
51	O=C(NNC(=S)Nc1ccccc1)c1cc(Br)ccc1Cl	-8	14%	23%	18	/	25%	-0.5

Marked active in Sfp PPTase inh (from the list above):
| cpd | molecule | TRPML1 blocker | Sfp PPTase inh | PINK1 modulator | Menin-MLL FL inh |
| --- | --- | --- | --- | --- | --- |
| 9 | C=CCN1C(c2ccccc2)=CS/C1=C(\C#N)c1nnc2n1CCCCC2 | 23 | 63µM* | 0.9%[38.3 µM] | 1.2 |

Profiles as entered above. Order of screens: TRPML1 blocker | Sfp PPTase inh | PINK1 modulator | TRPV1 potentiator | Menin-MLL FL inh | ClpP mod | TRPML1 agonist
CN1CCN(Cc2cn(C)nc2-c2ccccc2F)CC1c1ccccc1 (centres undefined) is listed with -17 | 18% | 2.2% | -3 | 1.5 | 1.1% | 0.9
COc1cc(/C=N/NC(N)=O)cc(Br)c1OCc1ccccc1C is listed with 8 | -7% | 0.4% | 9 | 4.9 | -0.3% | 0.0
COCCNC(=O)C1(C)CCCN(C(=O)c2cc(F)ccc2C)C1 (centres undefined) is listed with / | / | -0.6% | / | / | -1.1% | -0.3
